High-throughput results: PubChem, National Center for Advancing Translational Sciences (NCATS)
miR-21 FLuc: raises the signal of a miR-21 reporter. HeLa miR-21 FLuc reporter, luciferase, 48 h. Potency, µM (highest dose often 38.3 µM), without a hit: at the highest dose reporter change, positive = more light. 340,000 tested, under 10 active; active = well fitted rising curve with a large enough effect; inconclusive = small, poorly fitted or top-dose-only effect; inactive = no such curve, though single readings can be large or run the other way;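 further: % of control where 0% means no effect; miR-21 action dims this reporter so a rising signal means less miR-21 action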
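Compounds were titrated across several concentrations (up to approximately 40 uM) and incubated 48 hours with HeLa miR-21-FLuc reporter cells (miR-21 target sequence downstream of FLuc, endogenous miR-21). Readout was firefly luciferase luminescence after lytic detection reagent.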
An asterisk follows results filed as active; ? = inconclusive.

# | Structure | miR-21 FLuc
1 | Cc1ccc(C)c(N2CCN(S(=O)(=O)c3cc(C(=O)Nc4cc(Cl)cc(Cl)c4)ccc3F)CC2)c1 | -3%
2 | Cc1cc(NC(=O)CSc2ncc(C(=O)Nc3ccc(C)c(C)c3)c(=O)n2C)no1 | -1%
3 | Cc1ccc(Cl)cc1NC(=O)COCc1cc(-c2ccco2)on1 | -13%
4 | COc1ccccc1C(=O)Nc1nnc(S(=O)(=O)N(C)c2ccc(Cl)cc2)s1 | -2%
5 | CC(=O)Nc1ccc(NC(=O)c2cc(CN3CCCC3)on2)cc1 | -1%
6 | CC1=C(c2ccc(C)c(C)c2)S(=O)(=O)N=C1N1CCC(C(=O)Nc2ccc(Cl)cc2)CC1 | 1%
7 | CCOc1ccc(CCNC(=O)Cn2c(=O)c3cccn3c3ccc(F)cc32)cc1OCC | 2%
8 | Cc1ccc(CCNC(=O)NCc2noc3ccc(C)cc23)cc1 | 0%
9 | COc1ccc(CC(=O)N(Cc2nc(-c3ccc(C)cc3)no2)C(C)C)cc1 | 5%
10 | CCC(C(=O)NCCc1ccc(SC)cc1)n1nc(C)c2c(C)n(-c3ccc(C)cc3)nc2c1=O (stereo not drawn) | 26%
11 | COc1ccccc1CNS(=O)(=O)c1ccc(-c2cc(C(F)(F)F)on2)s1 | 9%
12 | Cc1nn(C(=O)COc2ccccc2Br)c(C)c1Sc1ccccc1 | -9%
13 | Cc1noc(C)c1S(=O)(=O)N1CCC(C(=O)N2CCN(c3cccc(C(F)(F)F)c3)CC2)CC1 | 26%
14 | CCCn1c2ccccc2c2cnn(CC(=O)NC(CCSC)C(=O)OC)c(=O)c21 (stereo not drawn) | -1%
15 | CCOc1ccccc1NCc1nnc2n1CCCCC2 | -5%
16 | CN(CC(=O)Nc1cccc(C(F)(F)F)c1)S(=O)(=O)c1ccc2[nH]c3c(c2c1)CCCC3 | 18%
17 | CCc1ccc(C(=O)c2cn(CC(=O)Nc3ccc4c(c3)OCCO4)c3ccc(C)cc3c2=O)cc1 | -3%
18 | COc1ccc(NC(=O)CC(C)n2nc(C)cc2C)cc1Cl (stereo not drawn) | -3%
19 | COc1ccc(CNC(=O)c2ccc3c(c2)N(Cc2ccccc2C)C(=O)c2ccccc2S3=O)cc1 (stereo not drawn) | -1%
20 | O=C(CN1C(=O)COc2ccc(S(=O)(=O)N3CCCCCC3)cc21)N1CCN(c2ccc(F)cc2)CC1 | 11%
21 | COc1cc(NC(=O)CN2C(=O)CN(C)C(=O)c3ccccc32)cc(OC)c1OC | 9%
22 | COc1cccc(NC(=O)CSc2cc(C)[nH]c(=O)n2)c1 | -7%
23 | CC(C)Sc1oc(-c2cccs2)nc1S(=O)(=O)c1ccc(Cl)cc1 | -1%
24 | CC1Cn2cc(C(=O)Nc3ccccc3C(F)(F)F)c(=O)c3c(Cl)ccc(c32)O1 (stereo not drawn) | 1%
25 | O=C(COc1ccc(Cl)cc1)OCc1cc(=O)n2nc(-c3cccs3)sc2n1 | -9%
26 | Cc1cccn2c(=O)c(C(=O)NCCc3ccccc3)cnc12 | 15%
27 | CCc1ccc(NC(=O)CC2C(=O)N(c3ccc(F)cc3)C(=O)N2Cc2ccc(F)cc2)cc1 (stereo not drawn) | 14%
28 | O=C(NCCCO)c1nn(-c2ccc(Cl)cc2)nc1CO | 4%
29 | CCOc1ccc(NC(=O)N2CCN(S(=O)(=O)c3ccc4c(ccn4C)c3)CC2)cc1 | 11%
30 | COC(=O)c1ccc(NC(=O)C(c2ccccc2)N2Cc3ccccc3C2=O)cc1 (stereo not drawn) | 3%
31 | Cc1ccc(CNC(=O)Nc2cn(CC(C)C)c(=O)c3ccccc23)cc1 | 9%
32 | CCOC(=O)c1c(NC(=O)c2nc(SC)ncc2Cl)sc(C)c1C | 0%
33 | CC(C)c1ccc(NC(=O)CCn2c(=O)c3cccn3c3ccccc32)cc1 | 13%
34 | Cc1nc2nc(NC(=O)c3ccc(C(C)(C)C)cc3)[nH]n2c(=O)c1C | 11%
35 | Cn1c(SCc2ccc(F)cc2)nc2ccc(C(=O)NCc3cccc(Cl)c3)cc21 | ?
36 | Cc1oc2ncnc(N3CCOCC3)c2c1C(=O)N1CCN(c2cccc(C(F)(F)F)c2)CC1 | -5%
37 | Cc1ccc(NC(=O)C2CCCN(S(=O)(=O)c3ccc4c(c3)oc(=O)n4C)C2)cc1Cl (stereo not drawn) | 1%
38 | CCOC(=O)c1c(NC(=O)C(C)Sc2cn(CCNC(=O)c3ccccc3OC)c3ccccc23)sc2c1CCC2 (stereo not drawn) | 12%
39 | CCS(=O)(=O)N1CCc2cc(C(=O)Nc3cc(C(F)(F)F)ccc3Cl)ccc21 | 2%
40 | Cn1nnnc1SCCCNCc1cc(Cl)ccc1OCc1ccc(F)cc1 | 18%
41 | CC(C)c1cnc2c(c1SCC(=O)c1ccccc1)c(=O)n(C)c(=O)n2C | -3%
42 | Cc1cccn2c(=O)c3cc(C(=O)NC(C)c4ccccc4)c(=N)n(CCCO)c3nc12 (stereo not drawn) | 3%
43 | COc1cc(OC)cc(-n2c(=O)[nH]c3cc(C(=O)NCCc4ccc(C)cc4)ccc3c2=O)c1 | -21%
44 | CC(C)c1ccc(NS(=O)(=O)c2ccc3[nH]cc(C(=O)NCC4CCCO4)c(=O)c3c2)cc1 (stereo not drawn) | 15%
45 | CCOC(=O)c1c(C)n(-c2ccccc2)c2ccc(OC(=O)c3ccccc3NC(=O)C(C)(C)C)cc12 | -8%
46 | CCc1ccc(-n2c(N3CCN(c4cccc(Cl)c4)CC3)nc3ccccc3c2=O)cc1 | 11%
47 | COc1ccc(C)cc1NC(=O)Nc1nnc(N2CCCCC2)s1 | 18%
48 | COC(=O)c1c(NC(=O)/C(C#N)=C/c2ccc(OC)cc2)sc2c1CCC2 | -6%
49 | COc1ccc(NC(=O)C2CCCN(S(=O)(=O)c3ccc(F)cc3)C2)cc1 (stereo not drawn) | 14%
50 | Cc1cccc(NC(=O)c2ccc(-n3c(C)nnc3C)cc2)c1 | 0%

(list continues)
# | Structure | miR-21 FLuc
51 | CCOC(=O)C1=C(CN2CCC(C(=O)OCC)CC2)NC(=O)NC1c1ccc(Cl)cc1 (stereo not drawn) | -8%
52 | Cc1cccc(N2CCN(c3ccc4cc(S(=O)(=O)N5CCC(C)CC5)ccc4n3)CC2C)c1 (stereo not drawn) | 1%
53 | CCOc1ccc(S(=O)(=O)N(CC(=O)NCCc2ccc(OC)cc2)c2ccccc2)cc1 | 1%
54 | CCC1CN(C(=O)N2CCC(C(=O)N3CCN(c4cc(C)ccc4C)CC3)CC2)c2ccccc2O1 (stereo not drawn) | -21%
55 | O=C(Nc1ccc(Cl)cc1)C1CCC(CNS(=O)(=O)c2ccc(Br)s2)CC1 (stereo not drawn) | 6%
56 | CCC1=Nc2cc(C(=O)NCc3ccccc3Cl)ccc2Sc2ccc(C)cc21 | 17%
57 | CC(C)C(=O)Nc1c(C(=O)N2CCN(c3ccccc3F)CC2)oc2ccccc12 | 0%
58 | CCc1cccc(NC(=O)C2CCC(CNS(=O)(=O)c3ccc4c(c3)CCCC(=O)N4)CC2)c1 (stereo not drawn) | 22%
59 | CCOC(=O)CSc1nc2ccc(NC(=O)c3ccc(F)cc3)cc2s1 | -1%
60 | O=C(CSc1nccn1Cc1ccccc1)NCc1ccccc1Cl | -12%
61 | Cc1ccc2c(c1)N(CCC(=O)NCc1ccccc1Cl)C(=O)CO2 | -1%
62 | CCn1c(=O)cc(OCC(=O)N(C)c2ccc(OC)cc2)c2ccccc21 | 13%
63 | Cc1nc(-c2ccccc2)sc1CCNC(=O)C(=O)Nc1ccc2c(c1)OCO2 | -18%
64 | COc1cc(Cl)c(C)cc1NC(=O)CC(c1ccc(F)cc1)N1Cc2ccccc2C1=O (stereo not drawn) | 1%
65 | CCc1cccc2sc(N3CCN(C(=O)C4CC4)CC3)nc12 | 12%
66 | CCN(CC)C(=O)C1=C(C)Nc2nc3ccccc3n2C1c1ccc(Cl)cc1 (stereo not drawn) | 3%
67 | CCOc1ccc(CCNC(=O)C(CC)n2nc(C)c3c(C)n(-c4ccccc4)nc3c2=O)cc1 (stereo not drawn) | 10%
68 | COc1ccccc1NC(=O)c1oc2ccccc2c1NC(=O)c1ccc(S(=O)(=O)N(C)C)cc1 | -1%
69 | O=[N+]([O-])c1cc(-c2nc(-c3ccccc3)no2)ccc1NC1CCCC1 | ?
70 | CCOc1ccc(Nc2oc(/C=C/c3ccc(F)cc3)nc2C#N)cc1 | -7%
71 | Cc1ccc(-n2nc3c(=O)n(CC(=O)NC(C)C)nc(C)c3c2C)cc1 | 0%
72 | Cc1ccc(-n2ncc3c(N4CCN(C)CC4)ncnc32)cc1C | -7%
73 | O=C(c1cc2c(=O)[nH]c3ccccc3c2s1)N1CCN(c2ccc(F)cc2)CC1 | -7%
74 | COc1ccc(NC(=O)c2csnn2)cc1 | -43%
75 | CCCN1C(=O)C2(c3ccccc31)c1c(oc3ccccc3c1=O)C(=O)N2CCO (stereo not drawn) | 0%
76 | COc1ccc(NC(=O)Cn2cc(S(=O)(=O)c3ccccc3)c(=O)c3cc4c(cc32)OCO4)cc1 | 2%
77 | O=C(c1ccc2c(c1)N(Cc1ccccc1)C(=O)c1ccccc1S2(=O)=O)N1CCCC1 | 15%
78 | CCOC(=O)N1CCC(NC(=O)c2cnn(-c3ccc(OC)cc3)c2C2CCN(C(=O)OC(C)(C)C)CC2)CC1 | 5%
79 | CCN(CCCNC(=O)c1nn(-c2ccc(OC)c(Cl)c2)c(=O)c2c1c1ccccc1n2C)c1cccc(C)c1 | -5%
80 | Cc1ccc(NC(=O)c2cnc(SCC(=O)N3CCOCC3)n(C)c2=O)cc1 | -37%
81 | Cc1ccccc1OCC(=O)Nc1ccc(S(=O)(=O)N(Cc2ccccc2)c2ccccc2)cc1 | 3%
82 | Brc1ccc(-c2nnc3sc(CN4CCCCC4)cn23)cc1 | -1%
83 | COc1ccccc1NC(=O)C1=C(C)Nc2c(C(=O)Nc3ccc(F)cc3)cnn2C1c1cccc([N+](=O)[O-])c1 (stereo not drawn) | 14%
84 | CCc1c(C)nc2nc(-c3ccccc3)nn2c1NCc1ccc(C)cc1 | -2%
85 | Cc1ccc(NC(=O)CSc2ccc(-c3sc(-c4ccccc4)nc3C)nn2)cc1F | -9%
86 | CC1CCN(C(=O)CSc2nnc(NC(=O)Nc3ccccc3)s2)CC1 | 18%
87 | COc1cccc(C(=O)Nc2ccccc2-c2nc3ccccc3s2)c1 | -5%
88 | CC1=C(C(=O)NCc2cccc(Br)c2)C2(CCCCC2)OC1=O | 21%
89 | COc1ccc(CN2C(=O)N(c3ccc(F)cc3)C(=O)C2CC(=O)Nc2cc(OC)cc(OC)c2)cc1 (stereo not drawn) | 18%
90 | CCCCCSc1nc2sc3c(c2c(=O)n1-c1ccccc1)CCN(C(C)=O)C3 | -12%
91 | CCOC(=O)c1c(C)sc(-c2c(-c3cc(C)ccc3C)[nH]c3c2c(=O)n(C)c(=O)n3C)c1O | -13%
92 | COc1cccc(-c2nn(C)c3sc(C(=O)NCCc4ccc(Cl)cc4)cc23)c1 | 27%
93 | CCOC(=O)c1cc(-c2ccc(F)cc2)n(CCC(=O)Nc2nc3cc(C)c(C)cc3s2)c1C | -8%
94 | Cc1ccc2ncc(C(=O)c3ccc(C)c(C)c3)c(S(=O)(=O)c3ccccc3)c2c1 | ?
95 | CSc1cccc(Nc2cc(C(=O)NCCCN(C)c3ccccc3)c3ccccc3n2)c1 | 12%
96 | CC(=O)c1cccc(NC(=O)c2cnn(-c3cccc(C)c3)c2-n2cccc2)c1 | -2%
97 | COc1ccc(Cl)cc1NC(=O)CSc1cn(CC(=O)N2CCCCC2)c2ccccc12 | 30%
98 | Cc1cccc(C(C)C)c1NC(=O)c1ccc2c(c1)CCN2S(C)(=O)=O | 25%
99 | Cc1ccc(CCNC(=O)c2cc(-c3ccccc3)n[nH]2)cc1 | -13%
100 | CN(C)c1ccc(-c2nc3ccccn3c2Nc2ccc3c(c2)OCCO3)cc1 | -42%

Further results.
# | Structure | miR-21 FLuc
101 | Cc1cccc(Nc2nc(-c3ccccc3)nc3ccccc23)c1 | 3%
102 | CC(=O)c1cccc(N2C(=O)CN(S(C)(=O)=O)CC2(C)C(=O)NC2CCCC2)c1 (stereo not drawn) | 0%
103 | CCc1ccc(CNC(=O)C2CCN(c3nn4cc(-c5ccc(F)cc5)nc4s3)CC2)cc1 | -26%
104 | CCOc1ccc(CNC(=O)Cn2ncc3c(=O)oc4ccc(C)cc4c32)cc1 | 1%
105 | Cc1ccc(-c2nc3ccccn3c2Nc2ccc3c(c2)OCO3)cc1 | -15%
106 | COCCCNC(=O)c1ccc(NC(=O)c2nsc3ccccc23)cc1 | -69%
107 | CCCc1nnc(NC(=O)c2nc(SCC)ncc2Cl)s1 | 0%

In the list so far, these have two or more sulfur atoms.
# | Structure | miR-21 FLuc
4 | COc1ccccc1C(=O)Nc1nnc(S(=O)(=O)N(C)c2ccc(Cl)cc2)s1 | -2%
11 | COc1ccccc1CNS(=O)(=O)c1ccc(-c2cc(C(F)(F)F)on2)s1 | 9%
23 | CC(C)Sc1oc(-c2cccs2)nc1S(=O)(=O)c1ccc(Cl)cc1 | -1%
25 | O=C(COc1ccc(Cl)cc1)OCc1cc(=O)n2nc(-c3cccs3)sc2n1 | -9%
32 | CCOC(=O)c1c(NC(=O)c2nc(SC)ncc2Cl)sc(C)c1C | 0%
38 | CCOC(=O)c1c(NC(=O)C(C)Sc2cn(CCNC(=O)c3ccccc3OC)c3ccccc23)sc2c1CCC2 (stereo not drawn) | 12%
55 | O=C(Nc1ccc(Cl)cc1)C1CCC(CNS(=O)(=O)c2ccc(Br)s2)CC1 (stereo not drawn) | 6%
59 | CCOC(=O)CSc1nc2ccc(NC(=O)c3ccc(F)cc3)cc2s1 | -1%
85 | Cc1ccc(NC(=O)CSc2ccc(-c3sc(-c4ccccc4)nc3C)nn2)cc1F | -9%
86 | CC1CCN(C(=O)CSc2nnc(NC(=O)Nc3ccccc3)s2)CC1 | 18%
90 | CCCCCSc1nc2sc3c(c2c(=O)n1-c1ccccc1)CCN(C(C)=O)C3 | -12%
107 | CCCc1nnc(NC(=O)c2nc(SCC)ncc2Cl)s1 | 0%

This is a subset. The share of hits here may be higher or lower than overall.
